miR-21 reporter – miR-21 reporter, rising signal; HeLa miR-21 FLuc reporter, luciferase, 48 h; Potency, µM (titrated, usually from 38.3 µM), inactives show at the top dose reporter change, positive = more light; 340,000 tested, under 10 active; active = well fitted rising curve with a large enough effect; inconclusive = small, poorly fitted or top-dose-only effect; inactive = no such curve, though single readings can be large or run the other way;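 further: % of control where 0% means no effect; miR-21 action dims this reporter so a rising signal means less miR-21 action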
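HeLa cells stably expressing CMV-driven firefly luciferase with a downstream miR-21 binding sequence, endogenously expressing miR-21, were treated with titrations (up to about 40uM final) for 48 hours at 37 degree Celsius. Luciferase luminescence was read after lysis.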
Rango complex inh – inhibitors of Rango-importin beta complex formation; Rango CFP/YFP FRET sensor + importin beta, 45 min; Q14974; 340,000 compounds, 0.031% hits; AID 540263; Potency, µM (doses to about 92.2 µM), without a hit: at the top dose inhibition of complex formation; active = rising FRET ratio curve, often small or poorly fitted; inconclusive = mostly compound fluorescence or quenching in the first reads; inactive = flat curves in all reads;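 further: potency means the concentration at half of the fitted maximal effect; 0% = DMSO wells and 100% = buffer wells lacking importin beta; nearly all actives have a fitted effect of over 15% in size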
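FRET biosensor Rango (snurportin 1 IBB between N-terminal EYFP and C-terminal Cerulean), 50 nM in PBS/1 mM DTT/0.02% Tween-20/0.1% BSA, preincubated 5 min RT with compound; 0.125 microM importin beta added, 45 min RT, CFP/YFP FRET ratio read.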
Rango dissoc inh – prevents RanGTP from dissociating the Rango-importin beta complex. Potency, µM (doses to about 46.1 µM), for inactives: at the top dose activity change, negative = inhibition. Biochemical FRET Rango-importin beta, RanGTP-induced dissociation. 340,000 compounds, 0.071% hits; active means falling FRET ratio curve, often poorly fitted, with flat reads before Ran was added; inconclusive means other falling curves, or compound fluorescence or quenching; inactive means flat or rising ratio curve;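 further: potency means the concentration at half of the fitted maximal effect; % of control where 0% means no effect; nearly all actives have a fitted effect of over 45% in size; -100% = wells without RanGTP and RCC1; the record marks most hits as doubtful in a second field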
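Rango FRET biosensor (snurportin-1 IBB flanked by N-terminal EYFP and C-terminal CFP10) at 0.1 uM, with 0.25 uM importin beta in PBS, 1mM DTT, 0.02% Tween-20, 0.1% BSA. 0.6 uM Ran, 2mM GTP and 0.2 uM RCC1 were then added for 45 min at room temperature. Inhibition read as loss of FRET rise.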
GLA inh pH 4.5 – inhibitors of human alpha-galactosidase A at pH 4.5. P06280. purified enzyme, 4-MU-alpha-Gal fluorescence, pH 4.5. 230,000 tested, under 10 active. activity change, negative = inhibition, % at 105 µM; inconclusive = small, poorly fitted or top-dose-only inhibition, or a rising curve; inactive = flat fitted curve, though single readings scatter; no compound was filed as active;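 further: 0% = full activity with enzyme and -100% = basal without enzyme; dose as in the result columns while the protocol names 77 µM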
Target sequence (P06280 whole entry, looked up): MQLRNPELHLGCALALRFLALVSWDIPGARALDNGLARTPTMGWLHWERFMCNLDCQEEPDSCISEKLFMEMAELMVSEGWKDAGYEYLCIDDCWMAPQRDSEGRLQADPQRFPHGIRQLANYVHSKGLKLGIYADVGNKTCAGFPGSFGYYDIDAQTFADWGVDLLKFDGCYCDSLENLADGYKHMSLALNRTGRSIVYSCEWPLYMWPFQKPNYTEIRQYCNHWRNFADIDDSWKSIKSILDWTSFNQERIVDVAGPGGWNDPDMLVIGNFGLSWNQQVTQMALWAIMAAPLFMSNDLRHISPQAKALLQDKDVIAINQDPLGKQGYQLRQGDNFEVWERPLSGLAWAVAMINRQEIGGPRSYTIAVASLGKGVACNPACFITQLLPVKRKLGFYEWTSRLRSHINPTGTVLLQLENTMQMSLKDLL
* marks the source's active call; other numbers are inactive results; ? = inconclusive; . = not tested or not shown; & = joins results of further samples; [ ] = another dose, or the depositor's remark.

SMILES | miR-21 reporter | Rango complex inh | Rango dissoc inh | GLA inh pH 4.5
Cn1c(N)c(C(=O)CSc2nnc(Cc3cccs3)n2C2CC2)c(=O)n(C)c1=O | . | 0.4% | 16% | .
O=C1CCC(=O)N1CN(C(=O)c1ccco1)c1ccccc1 | 3% | -1.9% | -23% | 2
CCOC(=O)c1c(C)nc(C)c(C(=O)OCC)c1-c1ccc(OC)cc1 | 0%&-3% | 4.4% | -13% | -2&-5
Cc1ccccc1CC1(CO)CCCN(Cc2ccccc2Cl)C1 (stereo unspecified) | 2% | -0.9% | -5% | .
COc1ccc(/C=C(\C#N)c2nc3ccc(C)cc3[nH]2)cc1Oc1ccc(C(F)(F)F)cc1[N+](=O)[O-] | -5% | ? | -4% | 9
CCOC(=O)C1=NN(c2ccccc2)C2=NC(C)=C(C(=O)OC)C(c3ccc(C)cc3)N12 (stereo unspecified) | -3% | -0.3% | 0% | -1
CC(C)C(=O)Nc1ccc(Nc2ccccc2)cc1 | -37% | 1.0% | -1% | 5
O=C(c1cccc(S(=O)(=O)N2CCCCC2)c1)N1CCc2ccccc21 | 1% | -3.0% | -3% | 0
COC(=O)c1ccccc1NC(=S)N(Cc1ccc2c(c1)OCO2)Cc1cc2ccc(OC)cc2[nH]c1=O | 22% | -1.5% | 1% | -17
O=C1CC(NCc2ccc3c(c2)OCO3)C(=O)N1CCc1ccccc1 (stereo unspecified) | -13% | -0.8% | 16% | -7
CC(C)COc1ccc(C(=O)NCc2ccco2)cc1 | -33% | 3.6% | -7% | 0
CN(c1ccc(F)cc1)S(=O)(=O)c1ccc(Cl)c(C(=O)OCC(=O)NC2CC2)c1 | . | -4.4% | 9% | .
O=C(NNC(=O)C1CCCCC1)c1ccc(Br)cc1 | -27% | 5.7% | -5% | 4
CN(C)c1ccc(C2=NOC(CN3C(=O)c4ccccc4S3(=O)=O)C2)cc1 (stereo unspecified) | -47% | 0.0% | 1% | -18
O=C(CN1CCC(Cc2ccccc2)CC1)NC(=O)NC1CCCCC1 | -2% | -0.2% | 0% | 2
CC(C)(C)c1cc(NCCCn2ccnc2)n2ncc(-c3ccc(Cl)cc3)c2n1 | -47% | 3.9% | 4% | -13
O=C(/C=C/c1cccs1)c1ccc([N+](=O)[O-])cc1 | -12% | 2.5% | 1% | -8
COc1ccc(C(CNC(=O)c2ccc(S(=O)(=O)Nc3cccc(C)c3C)cc2)N2CCOCC2)cc1 (stereo unspecified) | . | 0.3% | 39% | .
O=C(NC(=S)Nc1ncc(Br)cc1Br)c1ccccc1 | -59% | -1.5% | 34% | .
CSc1nsc(SC)c1C(=O)Nc1ccc(Cl)cc1 | -5% | -2.2% | 31% | -10
COc1ccc(NC2=C(Cl)C(=O)N(c3ccccc3)C2=O)c(OC)c1 | -1% | -0.1% | -6% | .
O=C(Cn1cnc2c(NCc3ccccc3)ncnc21)NCCCN1CCCC1=O | . | -4.7% | 0% | .
O=[N+]([O-])c1cccc(/C=N/n2c(-c3cccnc3)n[nH]c2=S)c1 | 2% | -0.5% | 4% | -5
COc1cccc(OCCn2ccnc2)c1 | 1% | -0.3% | 19% | -6
CC(=O)c1ccc(NS(=O)(=O)c2ccc3ccccc3c2)cc1 | -11% | -3.4% | -13% | -4
CCC(=O)N1CCc2cc(S(=O)(=O)CCC(=O)N(C)c3ccc(OC)cc3)ccc21 | 1%&0% | ? | -3% | .
O=C(Nc1nccs1)c1cc2cc(Cl)ccc2oc1=O | -2% | 13% | 13% | 4
O=C(c1ccc(NC(=S)Nc2ccc(F)cc2F)cc1)N1CCOCC1 | -8% | -2.5% | -27% | 0
Cc1nc(C)c(C(=O)N(c2ccc(F)cc2)C(C(=O)NCC2CCCO2)c2ccccc2)s1 (stereo unspecified) | 5% | -5.8% | -3% | .
O=c1oc(-c2cccs2)nc2ccccc12 | -28% | 0.2% | -20% | -6
COc1cccc(NC(=O)CN(C)C(C)C(=O)N2CCCCC2)c1 (stereo unspecified) | . | 0.7% | -12% | .
O=C(NCCc1ccc(Cl)cc1)C1COc2ccccc2O1 (stereo unspecified) | -10% | 0.0% | -4% | .
O=C(O)Cn1cc(C(=O)C2CC2)c2ccccc21 | -1% | -5.2% | -13% | 4
C#CCNC(=O)C1=C[C@H](c2ccc(Br)cc2)[C@@H](CCCO)[C@H](OCC)O1 | 2% | 0.0% | -3% | -3
CCN(C(=O)CSc1nnnn1-c1ccc(Cl)cc1)C1CCS(=O)(=O)C1 (stereo unspecified) | . | -0.9% | -13% | .
O=C(NCCCCNC(=O)c1cccnc1Cl)c1cccnc1Cl | -14% | -0.1% | 7% | .
O=[N+]([O-])c1cccc(S(=O)(=O)N/N=C\c2ccc3c(c2)OCO3)c1 | -7% | 2.1% | 8% | .
COCCNC(=O)C1Cc2c(ccc3ccccc23)O1 (stereo unspecified) | -25% | 3.6% | -7% | -2
CC(O)(c1ccccc1)C(C(c1ccccc1)N1CCOCC1)N1CCOCC1 (stereo unspecified) | . | -0.2% | 20% | .
O=C(NCCN1C(=O)S/C(=C\c2cccnc2)C1=O)c1cc(S(=O)(=O)N2CCOCC2)ccc1F | 8% | 0.7% | 0% | 4
COCCn1c(SCC(=O)NCCc2ccc(OC)c(OC)c2)nc2c([nH]c3ccccc32)c1=O | 2% | 3.0% | 5% | 2
COc1ccc(Br)cc1/C=N/NC(=O)c1nc(-c2ccccc2)n2c1CCCCC2 | -3% | -1.6% | 0% | -1
O=C(Cc1c(F)cccc1Cl)Nc1ccon1 | -3% | -0.8% | -10% | -7
CC1(C)Oc2ccc(C(=O)NC3CC3)cc2N(CC(=O)N2CCOCC2)C1=O | 0% | 3.5% | -9% | 6
CC1(C)C(=O)Nc2ccccc2N1C(=O)COC(=O)Cn1cnc2ccccc2c1=O | 0% | 4.3% | 1% | 6
CCN=c1sc(C(=O)NCCc2ccccc2)cc(=O)n1CC | 12% | 3.9% | 5% | -2
CC(/C=N/N1CCN(c2ccccc2)CC1)=C\c1ccco1 | -16% | 2.1% | 8% | 4
COc1ccc(F)cc1C(=O)C1CCCN(C(=O)C2=C(C)OCCO2)C1 (stereo unspecified) | -5% | -2.9% | 1% | 2
CCOC(=O)CCc1c(C)c2ccc(OCc3cc([N+](=O)[O-])ccc3OC)c(C)c2oc1=O | 0% | . | . | 0
O=S(=O)(/C=C/c1ccccc1)N1CCN(c2nc(-c3cccnc3)nc3ccccc23)CC1 | 4% | ? | -19% | 7
Cc1nc(/C=C\C(=O)O)c2cc(C)oc2n1 | 0% | -0.1% | 4% | -1[21.1 µM]
COC(=O)CN(c1ccc(C)cc1)S(=O)(=O)c1c(C)[nH]c(=O)[nH]c1=O | 0% | -0.8% | 1% | 6
Cc1cc(C)cc(NC(=O)CN2CCN(c3ccccn3)CC2)c1 | 0% | 0.6% | 9% | .
COC(=O)c1sc(N(C)C)c(C#N)c1-c1ccccc1 | -12% | 0.1% | 2% | -2
Cc1ccc(S(=O)(=O)c2nc(S(=O)(=O)c3ccc(C)cc3)c(N3CCN(CCO)CC3)s2)cc1 | 15% | 1.2% | 2% | .
Cc1ccc(S(=O)(=O)/N=C(/c2ccccc2)N(C)c2ccc(O)cc2)cc1 | -1% | 2.6% | -4% | -19
C#CCOCCOCCOCCNc1nc(N2CCOCC2)nc(N2CCN(C(=O)[C@H]([C@@H](C)CC)n3cc([C@@H](N)CC(C)C)nn3)CC2)n1 | -5% | 0.9% | 18% | 3
Cc1[nH]cc(Br)c(=O)c1Oc1ncc(C(F)(F)F)cc1Cl | -4% | ? | -17% | 7
S=C(NC1CCCC1)NC1CCCC1 | 3% | 0.6% | -3% | 13
Cc1ccc(CC(=O)Nc2ccc(Cl)cn2)cc1 | -38% | 3.5% | -23% | .

In another format: 5 of the compounds above.
| mol | miR-21 reporter | Rango complex inh | Rango dissoc inh | GLA inh pH 4.5 |
| --- | --- | --- | --- | --- |
| COCCn1c(SCC(=O)NCCc2ccc(OC)c(OC)c2)nc2c([nH]c3ccccc32)c1=O | 2% | 3.0% | 5% | 2 |
| COc1ccc(Br)cc1/C=N/NC(=O)c1nc(-c2ccccc2)n2c1CCCCC2 | -3% | -1.6% | 0% | -1 |
| O=C(Cc1c(F)cccc1Cl)Nc1ccon1 | -3% | -0.8% | -10% | -7 |
| CC1(C)Oc2ccc(C(=O)NC3CC3)cc2N(CC(=O)N2CCOCC2)C1=O | 0% | 3.5% | -9% | 6 |
| CC1(C)C(=O)Nc2ccccc2N1C(=O)COC(=O)Cn1cnc2ccccc2c1=O | 0% | 4.3% | 1% | 6 |

More compounds follow.
SMILES | miR-21 reporter | Rango complex inh | Rango dissoc inh | GLA inh pH 4.5
Cn1ccc(C(=O)Nc2sc3c(c2C#N)CCC3)n1 | -15% | ? | -6% | .
COc1ccccc1C(=O)Nc1ccc(S(=O)(=O)Nc2onc(C)c2C)cc1 | -15% | -1.8% | -2% | 3
CN(C)c1ccc(C(=S)NCc2ccco2)cc1 | -45% | ? | ? | 1
COc1ccc(NC(=S)Nc2ccccc2)c(OC)c1 | -11% | 0.5% | -16% | 4
CC1CCN(c2c(NCC3CCC(C(=O)NCc4ccccc4)CC3)c(=O)c2=O)CC1 (stereo unspecified) | -1% | -0.2% | 12% | -15
CC(=O)c1ccc(C(=O)NC2CCCN(Cc3ccc(Cl)cc3)C2)s1 (stereo unspecified) | 10% | 1.1% | 9% | .
Cc1cccc(-c2c3c(=O)n(C)c(=O)n(C)c3cn2-c2ccccc2O)c1 | -20% | 1.2% | 9% | 1
Oc1cccc2oc(=S)[nH]c12 | . | -0.4% | -13% | .
COc1cc2ncnc(NCc3ccc(C)o3)c2cc1OC | -5% | -1.2% | -7% | 3
Cc1ccc(N(CC(=O)NCc2ccccc2)C(=O)CCC(=O)Nc2nccs2)cc1 | -3% | ? | 15% | .
CCOc1ccccc1NC(=O)CC1(CC(=O)N2CCOCC2)CCCC1 | . | 5.0% | -7% | .
CC(NC(=O)C1CCCCC1)C(c1cccs1)N1CCOCC1 (stereo unspecified) | -4% | 2.7% | -14% | 5
COc1cc(/C=N/N2CCN(Cc3ccc(Cl)cc3)CC2)ccc1OC(C)=O | 7% | -1.5% | 17% | .
O=C(NCCSc1ccc(Cl)cc1)c1ccco1 | -13% | -2.5% | 14% | -5
Cn1cccc1Cc1nnc(SCC(=O)N2CCCC2)n1CCc1ccccc1 | 1% | 1.0% | 16% | 1
Cc1ccc(-c2nn(-c3cc(N4CCNCC4)ccc3[N+](=O)[O-])c(=O)c3ccccc23)cc1 | -4% | -1.8% | 0% | -6
Cc1ccc(S(=O)(=O)/N=C(/c2ccccc2)N2CCOCC2)c(C)c1 | -1% | 1.8% | 14% | 6
COc1ccccc1N(C)S(=O)(=O)c1ccc(C(=O)N2CCC(C(N)=O)CC2)cc1 | 0% | -7.7% | -17% | -15
c1ccc(Nc2nc(N3CCCCC3)nc(N3CCNCC3)n2)cc1 | -5% | 3.0% | 4% | -5
CCN(CC)CCn1c(SCC(=O)NCc2ccco2)nc2c(sc3ccccc32)c1=O | -6% | -0.3% | -29% | 10
S=c1[nH]nc(-c2n[nH]c3c2CCC3)n1/N=C/C=C/c1ccccc1 | -6% | 3.8% | 21% | -1
CCOC(=O)C1=CN(Cc2ccco2)S(=O)(=O)N(CC)C1c1ccccc1 (stereo unspecified) | . | -4.9% | 17% | .
CCCN(CC1CC1)C(=O)CSc1ncnc2sccc12 | -12% | -0.4% | 10% | 6
COc1ccc(C(Nc2ccc(S(=O)(=O)N3CCOCC3)cc2)C(=O)NCCC(C)C)cc1OC (stereo unspecified) | -1% | 0.1% | 15% | .
COc1cc(SC)ccc1C(=O)Nc1cc(C)ccn1 | -27% | -1.9% | 8% | -3
CC(=O)c1ccc(OCc2cc(C(=O)N(C)C3CCOC3)no2)cc1 (stereo unspecified) | 0% | 2.5% | 22% | .

Individual results from the entries so far.
In miR-21 reporter, `CC(=O)c1ccc(OCc2cc(C(=O)N(C)C3CCOC3)no2)cc1` (stereo unspecified) is listed with 0%
In GLA inh pH 4.5, `c1ccc(Nc2nc(N3CCCCC3)nc(N3CCNCC3)n2)cc1` is listed with -5

Not all compounds are listed; count on the stated rates, not on these rows.
